# SARS PLP yeast – inhibitors of SARS-CoV papain-like protease in yeast | Potency, µM (series often up to 32.9 µM), inactives show at the top dose activity, positive = growth rescue | 0.19% of 330,000 active | AID 485353 | S. cerevisiae expressing SARS-CoV PLpro, growth rescue; control for the full effect not named in the record; active means well fitted rising curve with a large enough effect; inconclusive means small, poorly fitted or top-dose-only effect; inactive means no such curve, though single readings can be large or run the other way; also: 0% is about no effect; nearly all actives have a fitted effect of over 55% in size; growth read by luminescence after 48 h
# RE007 growth inh – less growth of the S. pombe RE007 Vpr strain. S. pombe RE007 Vpr strain, BacTiter-Glo ATP luminescence, 24 h; control for the full effect not named in the record. 0.21% of 360,000 active. AID 651644. Potency, µM (top dose mostly 92.2 µM), for inactives: top-dose activity change, negative = less growth; active = well fitted falling curve with a large enough effect; inconclusive = small, poorly fitted or top-dose-only effect; inactive = no such curve, though single readings can be large or run the other way;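 also: % is scaled to controls: 0 for no effect and ±100 for the full control effect; nearly all actives have a fitted effect of over 50% in size; the assay follows cell death caused by Vpr and the record does not say whether a fall means rescue or toxicity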
#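 Fission yeast strain RE007, carrying one chromosomally integrated HIV-1 vpr copy, was seeded at OD 0.01 in PMG+AL medium with 23 nL pinned compound. After 24 h at 30 °C and 99% humidity, viability was read by BacTiter-Glo luminescence.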
# 2A StopGo – FMDV 2A StopGo reporter, luciferase signal | human cells with a luciferase reporter of 2A StopGo recoding; control for the full effect not named in the record | Potency, µM (series often up to 57.9 µM), for inactives: at the highest dose signal change, negative = less light | 1.2% of 410,000 active; active = well fitted falling curve with a large enough effect; inconclusive = small, poorly fitted or top-dose-only effect; inactive = no such curve, though single readings can be large or run the other way; tested in HEK293T cells; also: % is scaled to controls: 0 for no effect and ±100 for the full control effect; nearly all actives have a fitted effect of over 45% in size; luciferase light after 4 h
# Numbers without * were called inactive; ? = inconclusive; [ ] = another dose, or the depositor's remark. Potency is read from the fitted curve at half-maximal effect. A portion of the library. The share of hits here may be higher or lower than overall.
[1] O=C(/C=C\c1ccccc1[N+](=O)[O-])Nc1ccccc1
[2] CCN(C[C@H]1N[C@@](C)(C(=O)OC)[C@H]2C(=O)N(Cc3ccccc3)C(=O)[C@@H]12)S(=O)(=O)c1ccc(F)cc1
[3] COc1ccc(S(=O)(=O)N2CCN(Cc3cc(=O)n4ccccc4n3)CC2)cc1
[4] CCC1CCCCN1C(=S)NC(=O)c1ccco1 (configuration not stated)
[5] CCOc1ccc(C(=O)N(CC)CC(=O)Nc2ccc3c(c2)OCCO3)cc1OCC
[6] C/C(=N\NC(=O)c1cc(C)nc2ccccc12)c1ccccn1
[7] Cc1csc(=O)n1CC(=O)Nc1ccc(Cl)c(Cl)c1
[8] Cc1cc(C)cc(NC(=O)C(OC(=O)c2cc[n+]([O-])cc2)c2ccccc2)c1 (configuration not stated)
entry no.,1,2,3,4,5,6,7,8
2A StopGo,5%,0%,-6%,-1%,-7%,-26%,-1%,21%
RE007 growth inh,8%,7%[18.4 µM],0%,10%,-2%,-23%,1%,5%
SARS PLP yeast,1%,-2%,-3%,0%,-4%,-2%,-7%,0%

[9] C[C@H](CO)N1C[C@H](C)[C@@H](CN(C)S(=O)(=O)c2cn(C)cn2)Oc2ccc(NC(=O)Nc3ccccc3)cc2C1=O
[10] Cc1ccc(C(=O)Nc2ccc3[nH]c(=O)[nH]c3c2)c(C)c1
[11] O=C(N/N=C/c1c[nH]c2ccccc12)c1ccn[nH]1
[12] O=C1c2ccccc2C(=O)N1CCCCc1cn(C[C@H]2CC[C@H](Cn3cc(CCCCN4C(=O)c5ccccc5C4=O)nn3)O2)nn1
[13] C=CC[C@@H](CC(=O)N(CCO)Cc1ccccc1)C(=O)N[C@@H](COC(=O)[C@@H](CC=C)CC(=O)OC(C)(C)C)Cc1c[nH]c2ccccc12
[14] CC(C)Cn1c(SC(C)C(=O)NC2CC2)nnc1-c1ccccc1F (configuration not stated)
[15] CCN(CC)S(=O)(=O)c1ccc(C(=O)Nc2cc(S(=O)(=O)N3CCOCC3)ccc2O)cc1
[16] Cc1nc([N+](=O)[O-])cn1CC(=O)Nc1ccc2c(c1)OCO2
entry no.,9,10,11,12,13,14,15,16
2A StopGo,-16%,19%,64%[activator],?,?,-4%,-9%,0%
RE007 growth inh,21%,2%,11%,-6%,6%,-3%,0%,-10%
SARS PLP yeast,0%,-3%,-8%,5%,6%,0%,6%,-3%

[17] COC(=O)C1=C(c2ccccc2)C[C@@H]2CC[C@H]1N2C
[18] CCCCNC(=S)Nc1ccc(OC)nc1
[19] CCCN(C(=O)COc1ccc(C(C)=O)cc1OC)C1CCS(=O)(=O)C1 (configuration not stated)
[20] CC(N=Cc1cc([N+](=O)[O-])ccc1O)c1ccccc1 (configuration not stated)
[21] CCOC(=O)C1=C(COC(=O)C2CC(=O)N(CCc3ccccc3)C2)NC(=O)NC1C (configuration not stated)
[22] CN(C)S(=O)(=O)c1ccc(=S)[nH]c1
[23] O=C(CN1c2cccc3cccc(c23)S1(=O)=O)NC1CCCCC1
[24] C[C@@]12C(=O)N(Cc3ccc(Cl)cc3)CC(=O)N1[C@H]1c3ccccc3OC[C@@H]1[C@@H]2c1ccccc1
entry no.,17,18,19,20,21,22,23,24
2A StopGo,1%,17%,0%,?,-1%,-14%,-13%,0%
RE007 growth inh,-8%,-5%,1%,?,7%,2%,-10%,-4%
SARS PLP yeast,0%,-1%,2%,-23%,1%,5%,-1%,0%

[25] Cc1n[nH]c(C)c1NC(=O)CSc1nnnn1-c1cccc(F)c1
[26] CC(NC(=O)CNC(=O)C1O[C@@H]2OC(C)(C)O[C@@H]2[C@H]2OC(C)(C)O[C@@H]12)C(=O)O (some centres not stated)
[27] COc1ccc([C@H]2CC(=O)C=C(c3ccc(C(=O)O)cc3)C2)cc1OC
[28] CN(CC(=O)NCc1ccco1)C(=O)C1CC(=O)N(c2ccc3c(c2)OCCO3)C1 (configuration not stated)
[29] COc1ccc(/C=C/c2c(-c3ccccc3OC)sc3ccccc23)cc1OC
[30] CCC(C(=O)Nc1ccc(S(=O)(=O)N(C)C2CCN(C)CC2)cc1)c1ccccc1 (configuration not stated)
[31] CCOC(=O)N=Nc1c(O)n(Cc2ccccc2)c2ccccc12
[32] O=C(COc1ccc(S(=O)(=O)N2CCOCC2)cc1)NC1CCCCC1
entry no.,25,26,27,28,29,30,31,32
2A StopGo,-16%,-17%,-5%,-17%,-2%,-13%,13%,-15%
RE007 growth inh,1%,7%,19%,8%,2%,0%,28%,3%
SARS PLP yeast,-11%,1%,-11%,18%,-7%,-2%,-2%,1%

[33] COc1cc(OC)cc(-c2c(C#Cc3ccsc3)c3cc(-c4ccc(CN5CCOCC5)cc4)ccc3n2C)c1
[34] CCOC(=O)c1ccc(S(=O)(=O)NNc2ccc(C(F)(F)F)cn2)cc1
[35] CCCSc1ccc([C@@H]2[C@H]3C(=O)N(CC)C(=O)[C@H]3[C@]3(C(=O)OC)CCCN23)cc1OC
[36] Cc1ccc(C(=O)N2CCOCC2)c(F)c1F
[37] O=C(COC(=O)CCC(=O)c1cccs1)NC1CCCCC1
[38] O=C(N[C@H]1CCC(=O)N([C@H](CSc2ccc(Br)cc2)Cc2ccccc2)CC1)OCc1ccccc1
[39] COc1ccc2nc(NC(=O)c3c(C)noc3C)sc2c1
[40] Nc1nc(COC(=O)C2CCN(C(=O)c3ccc(Cl)cc3)CC2)nc(Nc2ccccc2)n1
entry no.,33,34,35,36,37,38,39,40
2A StopGo,-7%,10%,0%,-3%,-6%,-8%,24%,-5%
RE007 growth inh,-7%,2%,1%,-4%,-7%,1%,?,-16%
SARS PLP yeast,2%,2%,6%,0%,3%,-5%,0%,7%

[41] COC(=O)C1=C(c2c(C)noc2C)C[C@@H]2CC[C@H]1N2C(=O)NCCOc1ccccc1
[42] Nn1c(SCC(=O)Nc2ccc(N3CCOCC3)cc2)nnc1-c1cccc(F)c1
[43] Cc1noc(C)c1NC(=O)N(C)C[C@H]1Oc2c(NC(=O)NC(C)C)cccc2C(=O)N([C@H](C)CO)C[C@@H]1C
[44] CCc1noc(C)c1C(=O)OC(C)C(=O)NCc1ccc(OC)cc1 (configuration not stated)
[45] CCOc1cc(/C=N/NC(=O)c2c(-c3ccccc3)noc2C)ccc1O
[46] Cc1c(Cl)cnc(NC(=O)COC(=O)C2CC3CCCC(C2)C3=O)c1Cl (configuration not stated)
[47] C=CCn1nc2ccccc2c1OC
[48] COc1ccc(NC(=O)Nc2ccc3c(c2)C(=O)N([C@H](C)CO)C[C@H](C)[C@@H](CN(C)C(=O)Nc2ccc(C(F)(F)F)cc2)O3)cc1
entry no.,41,42,43,44,45,46,47,48
2A StopGo,4%,28%,-18%,-13%,-27%,4%,-2%,-30%
RE007 growth inh,-4%,-3%,4%,-2%,-7%,6%,-18%,-2%
SARS PLP yeast,-4%,-5%,-1%,1%,3%,-8%,-1%,9%

# Random excerpt: 6 compounds from above
[13] C=CC[C@@H](CC(=O)N(CCO)Cc1ccccc1)C(=O)N[C@@H](COC(=O)[C@@H](CC=C)CC(=O)OC(C)(C)C)Cc1c[nH]c2ccccc12
[4] CCC1CCCCN1C(=S)NC(=O)c1ccco1 (configuration not stated)
[36] Cc1ccc(C(=O)N2CCOCC2)c(F)c1F
[20] CC(N=Cc1cc([N+](=O)[O-])ccc1O)c1ccccc1 (configuration not stated)
[24] C[C@@]12C(=O)N(Cc3ccc(Cl)cc3)CC(=O)N1[C@H]1c3ccccc3OC[C@@H]1[C@@H]2c1ccccc1
[40] Nc1nc(COC(=O)C2CCN(C(=O)c3ccc(Cl)cc3)CC2)nc(Nc2ccccc2)n1
entry no.,13,4,36,20,24,40
2A StopGo,?,-1%,-3%,?,0%,-5%
RE007 growth inh,6%,10%,-4%,?,-4%,-16%
SARS PLP yeast,6%,0%,0%,-23%,0%,7%

# (listing goes on)
[49] Cc1ccccc1C(=O)OC(C)C(=O)NCc1ccc2c(c1)OCO2 (configuration not stated)
[50] CN(C)C(CNC(=O)c1cccc(S(=O)(=O)Nc2ccccc2Cl)c1)c1ccco1 (configuration not stated)
[51] COc1ccc(CCNC(=O)COC(=O)c2cc(=O)c3ccccc3o2)cc1
[52] COC(=O)C(C)Sc1ccc2nnc(CCNS(=O)(=O)c3ccccc3)n2n1 (configuration not stated)
[53] C/C=C/C1=CC(=O)C[C@H](c2ccc3c(c2)OCO3)C1
[54] CN(C)c1ccc(C(=O)Nc2cccc(S(=O)(=O)NC3=NCCCCC3)c2)cc1
[55] Cc1nc2cc(Cl)c(Cl)cc2n1-c1ccccn1
[56] CCCCCCCN1C(N(C)C)=NC[C@@H]1Cc1ccccc1
entry no.,49,50,51,52,53,54,55,56
2A StopGo,-15%,-13%,-8%,-9%,-24%,49%[activator],-19%,-21%
RE007 growth inh,9%,-8%,16%,3%,9%,-11%,-27%,-13%
SARS PLP yeast,-3%,-5%,-1%,-1%,1%,2%,-18%,1%

# Compound profiles (already shown). Values in the order: 2A StopGo	RE007 growth inh	SARS PLP yeast
# `CCCCCCCN1C(N(C)C)=NC[C@@H]1Cc1ccccc1` across the screens: -21%	-13%	1%
# `COc1ccc(CCNC(=O)COC(=O)c2cc(=O)c3ccccc3o2)cc1` across the screens: -8%	16%	-1%
# `Cc1nc2cc(Cl)c(Cl)cc2n1-c1ccccn1` across the screens: -19%	-27%	-18%
# `Cc1ccccc1C(=O)OC(C)C(=O)NCc1ccc2c(c1)OCO2` (configuration not stated) across the screens: -15%	9%	-3%
# `C/C=C/C1=CC(=O)C[C@H](c2ccc3c(c2)OCO3)C1` across the screens: -24%	9%	1%

# The list goes on:
[57] COc1ccc(S(=O)(=O)N2CCN(c3nc(-c4cccnc4)nc4ccccc34)CC2)cc1
[58] COC(=O)CNC(=O)C(NC(=O)OCc1ccccc1)C(C)C (configuration not stated)
[59] COc1ccc(S(=O)(=O)N2CCCOC2CNC(=O)C(=O)NCc2ccco2)cc1C (configuration not stated)
[60] CCOC(=O)C1CCCN(C(=O)COc2ccc(C(=O)c3ccc(F)cc3)cc2)C1 (configuration not stated)
[61] C=CCC[C@@H](Cc1ccc(F)cc1)C(=O)OC[C@H](C)NC(=O)[C@H](CC=C)CC(=O)N(CCO)Cc1ccccc1
[62] COCc1ccccc1C1=CC(=O)C[C@H](c2ccc(F)cc2)C1
[63] O=C(CN1C(=O)NC(c2ccccc2)(c2ccccc2)C1=O)N1CCOCC1
[64] NC(=O)c1ccc(NC(=O)CNC(=O)c2sc3ccccc3c2Cl)cc1
entry no.,57,58,59,60,61,62,63,64
2A StopGo,?,-20%,-15%,?,?,-12%,3%,-8%
RE007 growth inh,-9%,7%,9%,-6%,2%,4%,3%,-6%
SARS PLP yeast,0%,-7%,-1%,-4%,15%,-2%,-3%,-6%

[65] Cc1cccc(C(=O)OCC(=O)c2ccc3c(c2)OCCO3)c1O
[66] CC[C@H](C)[C@@H](C(=O)NCCCCCCCCCCC(=O)N1CCNCC1)n1cc(CCCCN=C(N)N)nn1
[67] CC(=O)c1ccc(S(=O)(=O)N2CCN(CC(=O)Nc3ccccc3C(=O)NC3CC3)CC2)cc1
[68] Cc1cc(NC(=O)Cc2ccccc2)c2ccccc2n1
[69] COc1ccc(CNC(=O)C[C@H]2C[C@H](C(=O)N3CCCCC3)[C@@]3(CCc4ccccc4)c4[nH]c5ccc(Cl)cc5c4CCN3C2=O)cc1OC
[70] Cc1noc(C)c1NC(=O)Nc1ccc2c(c1)C(=O)N([C@H](C)CO)C[C@H](C)[C@@H](CN(C)C(=O)Nc1c(C)noc1C)O2
[71] C[C@H](CO)N1C[C@H](C)[C@@H](CN(C)C(=O)Nc2ccc3c(c2)OCO3)Oc2c(NC(=O)C3CCCCC3)cccc2C1=O
entry no.,65,66,67,68,69,70,71
2A StopGo,8%,44%[activator],?,?,?,-13%,30%
RE007 growth inh,-4%,-13%,11%,-2%,6%,0%,0%
SARS PLP yeast,3%,4%,-1%,-6%,16%,2%,-6%

# High-throughput results as filed in PubChem.
